Six1-Eya2 inh: qHTS Assay for Inhibitors of the Six1/Eya2 Interaction; Homeobox protein SIX1 (Homo sapiens) + Protein phosphatase EYA2 (Homo sapiens), …; AlphaScreen GST-Six1/His-Eya2 binding, biochemical; active compounds read low; control for the full effect not named in the record; activity change, % (no concentration beside the values); actives 0.56% (n = 360,000); AID 651725, 2012; in the data active = activity change below about -65%; inconclusive = about -30% to -65%; inactive = above about -30%; also: % is scaled to controls: 0 for no effect and ±100 for the full control effect
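Homogeneous AlphaScreen proximity assay pairing GST-Six1 with His-tagged Eya2 (added as 5X mix: 250 nM and 500 nM) in 50 mM Tris pH 8.0, 300 mM NaCl, 1 mM TCEP. Glutathione donor and nickel acceptor beads; 1 h, 37 °C, dark.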
D2 potentiator: Beta-Arrestin HTS for Positive Allosteric Modulators of the Human D2 Dopamine Receptor: Potentiators | D(2) dopamine receptor (Homo sapiens), P14416 | DiscoveRx D2 beta-arrestin cells, luminescence, 90 min; 100% = 57 uM dopamine signal | potentiation, % (concentration not given with the values) | actives 0.23% (n = 360,000); active = potentiation of 50% or more; inconclusive = 30% to 50%; inactive = 30% or less;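 also: compound concentration not given in the record; tested on top of an EC20 dose of dopamine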
Target sequence (P14416 whole entry, looked up): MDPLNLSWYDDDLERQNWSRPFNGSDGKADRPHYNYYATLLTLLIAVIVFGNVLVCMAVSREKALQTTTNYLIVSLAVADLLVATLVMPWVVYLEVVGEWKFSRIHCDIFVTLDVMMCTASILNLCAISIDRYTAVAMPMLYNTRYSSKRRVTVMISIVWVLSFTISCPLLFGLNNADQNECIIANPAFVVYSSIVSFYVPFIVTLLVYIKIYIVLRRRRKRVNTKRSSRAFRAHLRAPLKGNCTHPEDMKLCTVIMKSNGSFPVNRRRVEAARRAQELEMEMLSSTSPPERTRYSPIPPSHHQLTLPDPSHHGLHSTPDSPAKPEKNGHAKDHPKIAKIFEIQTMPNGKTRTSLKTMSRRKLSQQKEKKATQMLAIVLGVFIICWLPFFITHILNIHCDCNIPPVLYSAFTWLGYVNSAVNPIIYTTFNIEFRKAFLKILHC
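PathHunter beta-arrestin assay in DiscoveRx D2 cells. Compounds were added with an EC20 of dopamine (50 nM final) for 90 min at 37 deg C. Luminescence was read 1 h after detection reagent, with 57 uM dopamine as the EC100 control.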
D2 agonist: Beta-Arrestin HTS for Positive Allosteric Modulators of the Human D2 Dopamine Receptor: Agonists; DiscoveRx PathHunter D2 beta-arrestin, luminescence, 90 min; 100% = 57 uM dopamine signal; activation, % (concentration not given with the values); actives 0.084% (n = 360,000); AID 624465, 2012; in the data active = activation above about 40%; inconclusive = about 15% to 40%; inactive = below about 15%; also: compound concentration not given in the record; the text of the record calls up to 30% inactive
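Agonist mode: compounds alone added to overnight-plated D2 PathHunter cells for 90 min at 37 C, with 57 uM final dopamine (EC100) defining full response. Beta-arrestin recruitment detected by chemiluminescent reagent, read after 1 h at ambient temperature.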
PINK1 modulator: A Quantitative High throughput Screen to Identify Chemical Modulators of PINK1 Expression; PINK1 immunofluorescence, high-content cytometry, 24 h; Potency, µM (titrated, usually from 76.6 µM), without a hit: top-dose activation (PINK1 increase), usual class: activators; actives 0.2% (n = 410,000); AID 624263, 2012; active = well fitted activation curve with a large enough effect; inconclusive = small, poorly fitted or top-dose-only effect; inactive = flat fitted curve, though single readings scatter; cell line not stated here;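 also: potency is read from the fitted curve at half-maximal effect; % of control where 0% means no effect; nearly all actives have a fitted effect of over 65% in size; a mitochondrial uncoupler was the plate control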
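Compound titrations (5 concentrations, 24 h) on a stable cell line; DMSO and CCCP controls. Endpoint: fixed-cell PINK1 immunofluorescence with mitochondrial, cell and nuclear markers, scanned by microplate cytometer.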
TRPML1 agonist: qHTS for Agonists of the Human Mucolipin Transient Receptor Potential 1 (TRPML1). Mucolipin-1 (Homo sapiens), Q9GZU1. TRPML1-expressing cells, Ca2+ dye fluorescence, FDSS; host cell line not named in the record; reference of the full effect not given here. activation, % (test concentration not listed). actives 0.12% (n = 410,000); in the data active = activation above about 50%; inconclusive = about 30% to 50%; inactive = below about 30%; also: 0% is about no effect; the text of the record puts the active cut at 80%
Target sequence (Q9GZU1 whole entry, looked up): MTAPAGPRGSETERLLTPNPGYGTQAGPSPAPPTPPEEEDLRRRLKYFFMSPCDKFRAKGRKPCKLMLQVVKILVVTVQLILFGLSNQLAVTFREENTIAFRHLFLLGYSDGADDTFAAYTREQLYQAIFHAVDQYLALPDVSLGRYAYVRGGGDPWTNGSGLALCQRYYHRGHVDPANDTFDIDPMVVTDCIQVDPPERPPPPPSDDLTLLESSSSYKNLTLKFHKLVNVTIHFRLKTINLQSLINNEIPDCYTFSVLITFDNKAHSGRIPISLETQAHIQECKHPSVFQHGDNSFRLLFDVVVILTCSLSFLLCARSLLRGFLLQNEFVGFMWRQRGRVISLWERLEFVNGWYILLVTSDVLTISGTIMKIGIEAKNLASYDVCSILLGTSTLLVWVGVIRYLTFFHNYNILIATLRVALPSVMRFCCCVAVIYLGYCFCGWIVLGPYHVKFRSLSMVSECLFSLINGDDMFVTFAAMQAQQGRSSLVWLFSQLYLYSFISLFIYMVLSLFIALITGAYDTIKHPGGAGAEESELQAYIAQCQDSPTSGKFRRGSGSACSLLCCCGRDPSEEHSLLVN
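TRPML1-DL cells, Tet-induced overnight (~16 h, 37 degrees C), loaded 45-90 min at room temperature with Ca8 no-wash calcium dye plus quencher. FDSS fluorescence: 10 s baseline, compound pin-transfer, 110 s agonist read, then EC80 54-4 (4uM final) and 110 s antagonist read.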
CtBP-E1A blk: qHTS Assay for Inhibitors of the CtBP/E1A Interaction; AlphaScreen GST-E1A/His-CtBP binding, 1536-well; active compounds read low; control for the full effect not named in the record; actives 0.49% (n = 340,000); CtBP / adenovirus E1A interaction (AlphaScreen); AID 651724, 2012; activity change, % (concentration not given with the values); in the data active means activity change below about -65%; inconclusive means about -30% to -65%; inactive means above about -30%; also: % is scaled to controls: 0 for no effect and ±100 for the full control effect
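Protein mix (5X: 125 nM each GST-E1A, His-CtBP) was incubated with pinned compound 2 h at 37 deg C in dark, in 50 mM Tris pH 8.0 buffer with 300 mM NaCl. Glutathione donor and nickel acceptor beads followed; AlphaScreen signal read after 1 h.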
* hit, by the source's call; ? = inconclusive; / = no result given; [ ] = remark or other dose.

| No. | mol | Six1-Eya2 inh | D2 potentiator | D2 agonist | PINK1 modulator | TRPML1 agonist | CtBP-E1A blk |
| --- | --- | --- | --- | --- | --- | --- | --- |
| 1 | O=C(O)c1ccc(Oc2c(C(F)(F)F)oc3cc(O)ccc3c2=O)cc1 | -0.6 | -5.6 | -2.2 | -0.7% | -0.4 | 6.7 |
| 2 | Cc1cccc(-c2nc(C#N)c(N3CCCCC3)o2)c1 | -8.7 | -5.1 | -1.7 | -1.3% | 2.5 | -8.4 |
| 3 | CC(=O)c1cn(CCOc2ccccc2C)c2ccccc12 | -2.1 | 2.6 | 2.8 | -0.3% | 1.6 | 8.5 |
| 4 | COc1ccc(N(CC(=O)NN=C2CCCC2)S(=O)(=O)c2ccccc2)cc1Cl | 2.1 | -9.0 | -3.1 | 5.3% | -0.9 | -4.9 |
| 5 | CCCn1c(SCC(=O)Nc2c(CC)cccc2CC)nnc1C(C)C | 7.9 | 22.1 | -0.6 | -0.8% | -0.3 | 6.6 |
| 6 | Cc1noc(C)c1S(=O)(=O)Nc1ccc2c(c1)C(=O)N([C@H](C)CO)C[C@H](C)[C@H](CN(C)S(=O)(=O)c1ccc(Cl)cc1)OCCCC[C@@H](C)O2 | 1.6 | -7.5 | -5.3 | 0.0% | 0.6 | -6.4 |
| 7 | OCCN1c2ccccc2CCc2ccccc21 | 2.6 | -5.4 | -1.7 | 2.9% | 1.9 | 3.1 |
| 8 | O=C(CNC1CCCCCC1)Nc1ccccc1N1CCCCC1 | 2.0 | -9.3 | -1.1 | 26.8% | -0.3 | 3.3 |
| 9 | CCOC(=O)[C@@H]1[C@H]2COc3cc(OC)ccc3[C@H]2N2C(=O)N(c3ccc(Cl)cc3)C(=O)[C@]12C | 1.3 | -7.8 | -3.7 | -0.2% | 1.5 | -6.2 |
| 10 | COc1cc(OC)cc(C(=O)N[C@H](C(=O)Nc2nnc(C3CC3)s2)C(C)C)c1 | -6.1 | -34.6 | -3.4 | 3.0% | -0.2 | -0.9 |
| 11 | O=C(COC(=O)C1CC1)Nc1ccc2c(c1)OCO2 | -0.9 | -2.7 | -3.2 | 0.0% | -0.5 | -5.3 |
| 12 | CCCCn1c(N)c(N(CCOC)C(=O)CN2C(=O)NC3(CC(C)CC(C)(C)C3)C2=O)c(=O)[nH]c1=O (configuration not stated) | -0.5 | -1.5 | -3.0 | 0.1% | 1.3 | 0.0 |
| 13 | CCOC(=O)c1[nH]c(C)c(C(=O)NCc2ccc(C)cc2)c1C | -14.8 | -1.9 | -3.4 | 9.3% | 0.5 | -12.5 |
| 14 | N=C1C(=O)OCC1c1ccccc1NC(=O)c1ccccc1 (configuration not stated) | 9.0 | -5.3 | -4.2 | -0.1% | -0.4 | 6.4 |
| 15 | COc1ccc(S(=O)(=O)N2CCOC2CNC(=O)C(=O)NCc2ccc3c(c2)OCO3)cc1OC (configuration not stated) | 3.3 | -15.0 | 2.2 | 2.0% | -0.1 | 12.7 |

(next part)
| No. | mol | Six1-Eya2 inh | D2 potentiator | D2 agonist | PINK1 modulator | TRPML1 agonist | CtBP-E1A blk |
| --- | --- | --- | --- | --- | --- | --- | --- |
| 16 | Nc1nc(-c2cccnc2)nc2sc3c(c12)CCCC3 | -9.1 | -1.7 | 3.4 | 1.0% | 0.6 | -15.8 |
| 17 | COc1ccc(N2CCN(CC(O)COc3ccc4c(c3)CCC4)CC2)cc1 (configuration not stated) | ? | -42.3 | -3.5 | -0.4% | 3.1 | ? |
| 18 | O=C(c1cccc([N+](=O)[O-])c1)N1CCN(c2ccccn2)CC1 | 6.0 | 2.7 | -1.9 | -1.5% | 0.1 | 4.1 |
| 19 | Cc1cc(N2CCOCC2)ccc1/C=C\[N+](=O)[O-] | 1.9 | 2.8 | -2.9 | 2.7% | 11.7 | 4.8 |
| 20 | CCc1nn(CC(=O)NCCCN2CCOCC2)c(=O)c2cc3c(OC)cccc3n12 | -3.6 | -17.9 | -2.8 | -1.5% | -0.4 | -5.4 |
| 21 | Cc1cccc(C2c3[nH]c4ccccc4c3CCN2C(=O)Cc2nc(-c3ccccc3)n[nH]2)n1 (configuration not stated) | -16.1 | 1.0 | -4.6 | 2.8% | -0.4 | -5.3 |
| 22 | O=C(CN1CCCC1)Nc1c(Cl)cccc1Cl | 2.4 | -5.2 | 9.9 | 0.8% | -0.3 | 6.6 |
| 23 | CCn1c(/C=C/c2ccc(F)cc2)nc2ccccc2c1=O | 0.0 | -1.9 | -3.0 | 5.4% | 3.4 | -11.0 |
| 24 | CC(C)CN1CC(Br)C(=O)NC1=O (configuration not stated) | 12.3 | -5.2 | -4.3 | 2.0% | -0.3 | 6.6 |
| 25 | COc1ccc(CCN2CC(C(=O)N3CCCCCC3)CCC2=O)cc1 (configuration not stated) | 3.3 | -14.3 | -3.7 | -0.9% | -0.1 | 2.2 |
| 26 | Cc1ccc(NS(=O)(=O)c2ccc(Cl)c(NC(=S)NC(=O)C3CCCCC3)c2)cc1Cl | 1.6 | 22.5 | 4.3 | -2.9% | 0.8 | 0.5 |
| 27 | CCc1ccc(/C=N/NC(=O)c2cc(C)on2)s1 | -19.5 | -14.1 | -8.1 | 0.0% | -0.5 | 0.0 |
| 28 | COCCn1c(SCC(=O)N2CCCC2)nnc1C(C)C | 2.4 | -17.1 | 0.2 | -1.4% | 1.2 | 7.8 |
| 29 | COc1ccc(CCNC(=O)c2cnc3scc(C)n3c2=O)cc1OC | -16.6 | -0.4 | -0.6 | 1.4% | -1.0 | -7.1 |
| 30 | Cc1cc(OCC(=O)NCC2CCC(C(=O)O)CC2)c2c(C)c(Cc3ccccc3)c(=O)oc2c1 (configuration not stated) | 0.4 | -10.8 | -3.1 | 0.6% | / | 1.7 |

Part of the list above in a different format.
24	CC(C)CN1CC(Br)C(=O)NC1=O (configuration not stated)
- Six1-Eya2 inh = 12.3
- D2 potentiator = -5.2
- D2 agonist = -4.3
- PINK1 modulator = 2.0%
- TRPML1 agonist = -0.3
- CtBP-E1A blk = 6.6

25	COc1ccc(CCN2CC(C(=O)N3CCCCCC3)CCC2=O)cc1 (configuration not stated)
- Six1-Eya2 inh = 3.3
- D2 potentiator = -14.3
- D2 agonist = -3.7
- PINK1 modulator = -0.9%
- TRPML1 agonist = -0.1
- CtBP-E1A blk = 2.2

Going on with the list:
| No. | mol | Six1-Eya2 inh | D2 potentiator | D2 agonist | PINK1 modulator | TRPML1 agonist | CtBP-E1A blk |
| --- | --- | --- | --- | --- | --- | --- | --- |
| 31 | O=C(NCC1CCOCC1)c1cc(COc2ccc(F)cc2F)on1 | 0.6 | -17.5 | -1.9 | -1.0% | -1.1 | -5.1 |
| 32 | Cc1ccc(CN2C(=O)NC(Cc3c[nH]c4ccccc34)C2=O)cc1 (configuration not stated) | 0.0 | 19.6 | -2.6 | 3.4% | -1.7 | 8.6 |
| 33 | CC(C)c1nnc(NC(=O)COc2ccccc2[N+](=O)[O-])s1 | -0.1 | -4.0 | 0.7 | 0.1% | 1.1 | -2.1 |
| 34 | CCC(C)NS(=O)(=O)c1ccc(OCC(=O)NCc2ccc3c(c2)OCO3)cc1 (configuration not stated) | 0.2 | 6.2 | -1.2 | 2.6% | -0.2 | 1.7 |
| 35 | O=C(O)c1ccc(NCc2cccnc2)cc1 | 1.9 | -2.2 | -3.1 | 1.3%[38.3 µM] | 1.6 | -6.1 |
| 36 | CC1CC(C)(C)OC(C[N+]2(C)CCCCC2)O1 (configuration not stated) | 5.4 | -6.9 | 6.2 | -0.1% | 0.6 | -0.9 |
| 37 | COc1cc(/C=N/N2CCN(c3ccccc3OC)CC2)ccc1O | -16.3 | -8.4 | -1.6 | -1.3%[38.3 µM] | -0.1 | -9.4 |

Some of the entries so far, in transposed form.
[26] Cc1ccc(NS(=O)(=O)c2ccc(Cl)c(NC(=S)NC(=O)C3CCCCC3)c2)cc1Cl
[27] CCc1ccc(/C=N/NC(=O)c2cc(C)on2)s1
[28] COCCn1c(SCC(=O)N2CCCC2)nnc1C(C)C
[29] COc1ccc(CCNC(=O)c2cnc3scc(C)n3c2=O)cc1OC
[30] Cc1cc(OCC(=O)NCC2CCC(C(=O)O)CC2)c2c(C)c(Cc3ccccc3)c(=O)oc2c1 (configuration not stated)
[31] O=C(NCC1CCOCC1)c1cc(COc2ccc(F)cc2F)on1
[32] Cc1ccc(CN2C(=O)NC(Cc3c[nH]c4ccccc34)C2=O)cc1 (configuration not stated)
[33] CC(C)c1nnc(NC(=O)COc2ccccc2[N+](=O)[O-])s1
[34] CCC(C)NS(=O)(=O)c1ccc(OCC(=O)NCc2ccc3c(c2)OCO3)cc1 (configuration not stated)
[35] O=C(O)c1ccc(NCc2cccnc2)cc1

Screen / compound no.	26	27	28	29	30	31	32	33	34	35
Six1-Eya2 inh	1.6	-19.5	2.4	-16.6	0.4	0.6	0.0	-0.1	0.2	1.9
D2 potentiator	22.5	-14.1	-17.1	-0.4	-10.8	-17.5	19.6	-4.0	6.2	-2.2
D2 agonist	4.3	-8.1	0.2	-0.6	-3.1	-1.9	-2.6	0.7	-1.2	-3.1
PINK1 modulator	-2.9%	0.0%	-1.4%	1.4%	0.6%	-1.0%	3.4%	0.1%	2.6%	1.3%[38.3 µM]
TRPML1 agonist	0.8	-0.5	1.2	-1.0	/	-1.1	-1.7	1.1	-0.2	1.6
CtBP-E1A blk	0.5	0.0	7.8	-7.1	1.7	-5.1	8.6	-2.1	1.7	-6.1

[36] CC1CC(C)(C)OC(C[N+]2(C)CCCCC2)O1 (configuration not stated)
[37] COc1cc(/C=N/N2CCN(c3ccccc3OC)CC2)ccc1O

Screen / compound no.	36	37
Six1-Eya2 inh	5.4	-16.3
D2 potentiator	-6.9	-8.4
D2 agonist	6.2	-1.6
PINK1 modulator	-0.1%	-1.3%[38.3 µM]
TRPML1 agonist	0.6	-0.1
CtBP-E1A blk	-0.9	-9.4
